VDR inh: Inhibitors of the vitamin D receptor (VDR): qHTS; Vitamin D3 receptor (Homo sapiens), P11473; VDR-SRC2-3 peptide fluorescence polarization, 2 h; Potency, µM, for inactives: max response, negative = inhibition, hits mostly inhibitors; actives 0.93% (n = 400,000); AID 504847, 2011; active = well fitted inhibition curve with a large enough effect; inconclusive = small, poorly fitted or top-dose-only effect, or another doubt; inactive = no such curve, though single readings can be large or run the other way; note: series mostly up to about 120 µM
Target sequence (P11473 whole entry, looked up): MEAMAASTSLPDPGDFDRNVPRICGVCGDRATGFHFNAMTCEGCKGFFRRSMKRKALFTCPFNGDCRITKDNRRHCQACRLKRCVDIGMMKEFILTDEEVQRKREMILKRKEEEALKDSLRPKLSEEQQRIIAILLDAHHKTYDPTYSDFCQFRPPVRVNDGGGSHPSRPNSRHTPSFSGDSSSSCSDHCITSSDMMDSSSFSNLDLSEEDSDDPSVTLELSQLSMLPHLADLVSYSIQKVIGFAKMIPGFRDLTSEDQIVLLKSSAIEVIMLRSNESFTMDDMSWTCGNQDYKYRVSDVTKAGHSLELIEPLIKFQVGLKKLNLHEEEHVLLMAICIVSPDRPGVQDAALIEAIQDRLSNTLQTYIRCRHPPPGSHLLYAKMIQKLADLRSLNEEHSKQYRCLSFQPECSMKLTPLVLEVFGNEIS
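Signal is fluorescence polarization, reporting how far test compounds block the interaction of VDR with the SRC2-3 coregulator peptide after a 2 h room-temperature incubation.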
* marks the source's active call; other numbers are inactive results. % is set by controls: 0 for no effect and ±100 for the full control effect; potency is the fitted concentration of half-maximal effect. Some of the compounds tested. The share of hits here may be higher or lower than overall.

Results for O=C(CCNC(=O)c1ccc([N+](=O)[O-])cc1)NCCCN1CCCC1=O ?
VDR inh: 13%

Results for O=C1C(Cc2ccccc2)Nc2ncnc(N3CCOCC3)c2N1Cc1ccc(Cl)cc1 (stereo not drawn) ?
VDR inh: -11%

How did O=C(NC1=NCCS1)c1cc(-c2cccc(Br)c2)nc2ccccc12 do in these assays?
VDR inh: -4%

What do the screens show for `CN(C)c1ccc(NC(=O)CN2CCN(CC(=O)Nc3ccc(F)cc3)CC2)cc1`?
VDR inh: -1%

How did O=C(CSc1n[nH]c(-c2cccnc2)n1)Nc1ccnc2ccccc12 do in these assays?
VDR inh: -4%

Results for Cc1csc(SC(C)C(=O)NCC2CCCCC2)n1 (stereo not drawn) ?
VDR inh: -11%

Results for Cc1ccc(NC(=O)C(CC(C)C)N2Cc3ccccc3C2=O)cc1F (stereo not drawn) ?
VDR inh: -1%

What do the screens show for `CCCN1CCN(C(=O)CCCNC(=O)Cn2cnc3sc(C)c(C)c3c2=O)CC1`?
VDR inh: -14%

What do the screens show for `COc1ccc(CCNC(=O)c2ccc3c(c2)nc2n3CCC(C)C2)cc1OC` (stereo not drawn)?
VDR inh: 4%

How did CCOC(=O)C1(Cc2ccc(Cl)cc2)CCN(CCCn2cccn2)CC1 do in these assays?
VDR inh: -15%

What do the screens show for `COc1cnc(-c2ccccn2)nc1Sc1ccccc1Cl`?
VDR inh: 0%

Results for CC1CCCCN1C(=O)CSc1nnc(-c2ccco2)n1C (stereo not drawn) ?
VDR inh: 0%

What do the screens show for `OCc1cnc(SCc2cccc(F)c2)n1Cc1ccc(F)cc1`?
VDR inh: 2%

What do the screens show for `C[C@@H]1CCC[C@]2(O[C@@H](CCO)C[C@@H](O)[C@@H]2O)O1`?
VDR inh: 5%

How did CC(=O)Nc1ccc(NC(=O)COc2ccc(S(=O)(=O)NC(C)c3ccccc3)cc2)cc1 (stereo not drawn) do in these assays?
VDR inh: -2%

What do the screens show for `CN(C)c1ccc(C(c2nnnn2C(C)(C)C)N2CCN(C(=O)c3ccco3)CC2)cc1` (stereo not drawn)?
VDR inh: 16µM*

How did CC(=O)Nc1cc(C(=O)NCc2ccc(F)cc2)ccc1Sc1ccc(C)cc1 do in these assays?
VDR inh: 8%

What do the screens show for `CN(c1ccc(C(=O)N2CCN(Cc3ccc4c(c3)OCO4)CC2)cc1)S(=O)(=O)c1ccccc1`?
VDR inh: -6%

Results for O=C(N/N=C/c1ccccc1)c1ccco1 ?
VDR inh: 7%

How did COc1ccc(C(=O)Nc2cc(S(=O)(=O)N3CCCCC3)ccc2OC)cc1 do in these assays?
VDR inh: 15%

Arranged by count of non-hydrogen atoms (falling): some entries from above
What do the screens show for `CN(C)c1ccc(C(c2nnnn2C(C)(C)C)N2CCN(C(=O)c3ccco3)CC2)cc1` (stereo not drawn)?
VDR inh: 16µM*

What do the screens show for `CN(C)c1ccc(NC(=O)CN2CCN(CC(=O)Nc3ccc(F)cc3)CC2)cc1`?
VDR inh: -1%

How did COc1ccc(C(=O)Nc2cc(S(=O)(=O)N3CCCCC3)ccc2OC)cc1 do in these assays?
VDR inh: 15%

(more compounds)
What do the screens show for `O=[N+]([O-])c1ccccc1-c1ccc(CN2CCN(c3ccccc3)CC2)o1`?
VDR inh: -18%

Results for c1ccc(-c2cn(-c3ccccc3)c3ncnc(N4CCN(c5ccccc5)CC4)c23)cc1 ?
VDR inh: 4%

Results for Cc1cc([N+](=O)[O-])ccc1N(C)C ?
VDR inh: -10%

What do the screens show for `O=C(NCCc1ccccn1)c1nc(Cn2ccc([N+](=O)[O-])n2)no1`?
VDR inh: -1%

How did Cc1ccc(-n2ncc(C(=O)NCC3CCN(C4CCCC4)C3)c2C2CCN(C(=O)OC(C)(C)C)CC2)cc1C (stereo not drawn) do in these assays?
VDR inh: 11%

Results for COc1ccc(CCN(Cc2cc3cccc(C)c3[nH]c2=O)C(=O)N2CCCC2)cc1OC ?
VDR inh: -7%

Results for CCn1nc(C)c(CNC(=O)c2cc(COc3cncc(Cl)c3)on2)c1C ?
VDR inh: inconclusive

How did COc1ccc(Cl)cc1C(=O)NNC(=O)CNC(=O)c1ccc(C)s1 do in these assays?
VDR inh: 13%

What do the screens show for `COC(=O)Cn1cnc2sc(C)c(S(=O)(=O)N3CCN(c4ccccc4OC)CC3)c2c1=O`?
VDR inh: -3%

Results for Cc1ccc(-c2csc(NC(=O)c3ccc(F)cc3)c2C(=O)O)cc1 ?
VDR inh: 2%

What do the screens show for `CCc1ccccc1NC(=O)CN(C)C(=O)COc1ccc(C)nc1[N+](=O)[O-]`?
VDR inh: -7%

What do the screens show for `CCNc1nc(N)nc(Oc2ccc(OCc3ccccc3)nn2)n1`?
VDR inh: -3%

How did O=C(NN=C1C2CC3CC(C2)CC1C3)c1cccs1 do in these assays?
VDR inh: -3%

How did COc1ccccc1-c1nnc(SCC(=O)Nc2ccc(Cl)cc2Cl)o1 do in these assays?
VDR inh: 16%

Results for Cc1cccc(C)c1-n1ncc(C(=O)NC2CCCC2)c1C1CCN(C(=O)OC(C)(C)C)CC1 ?
VDR inh: 10%

Results for CCCCCc1nc(N)c(C#N)c(-c2ccco2)c1CCCC ?
VDR inh: -13%

How did CCn1c(C(=O)Nc2c(C)cccc2C)cc2sc(Cl)cc21 do in these assays?
VDR inh: -3%

Results for COc1ccc(-c2cc(C(=O)NCC(c3ccco3)N(C)C)c3ccccc3n2)cc1OC (stereo not drawn) ?
VDR inh: -11%

Results for COC(=O)[C@]1(Cc2ccccc2)N[C@H](CN(C)S(=O)(=O)c2ccc(F)cc2)[C@@H]2C(=O)N(C)C(=O)[C@@H]21 ?
VDR inh: -4%

Results for CC[C@]1(C(=O)OC)[C@H]2C(=O)N(C)C(=O)[C@H]2[C@H]2CN(C)C(=NCc3ccccc3)N21 ?
VDR inh: 7%

Retrieved one by one from the entries so far (four):
Results for COc1ccc(-c2cc(C(=O)NCC(c3ccco3)N(C)C)c3ccccc3n2)cc1OC (stereo not drawn) ?
VDR inh: -11%

What do the screens show for `O=C(NCCc1ccccn1)c1nc(Cn2ccc([N+](=O)[O-])n2)no1`?
VDR inh: -1%

How did COc1ccc(C(=O)Nc2cc(S(=O)(=O)N3CCCCC3)ccc2OC)cc1 do in these assays?
VDR inh: 15%

Results for Cc1cccc(C)c1-n1ncc(C(=O)NC2CCCC2)c1C1CCN(C(=O)OC(C)(C)C)CC1 ?
VDR inh: 10%

Going on with the list.
What do the screens show for `N#Cc1ccccc1-c1ccccc1C(=O)N1CCCCC1`?
VDR inh: -18%

Results for CCOc1ccccc1NC(=O)C(NC(=O)C1CCC(C)CC1)C(C)C (stereo not drawn) ?
VDR inh: 7%

What do the screens show for `CCOc1ccc(-c2nnn(CC(=O)N3CCCC3)n2)cc1OCC`?
VDR inh: -5%

How did CC(=O)Nc1cccc(OCCCNC(=O)c2ccc(C(C)(C)C)cc2)c1 do in these assays?
VDR inh: -2%

Results for Cc1cc(C)n(/N=C/c2cccc(O)c2)c(=O)c1C(N)=O ?
VDR inh: -4%

How did CCc1nnc(NC(=O)[C@@H](NC(=O)c2cccc(S(=O)(=O)N3CCOCC3)c2)C(C)C)s1 do in these assays?
VDR inh: -17%

How did CCOC(=O)NCc1ccc2c(c1)cc(C)n2C do in these assays?
VDR inh: -11%

How did O=C1/C(=C/c2ccccn2)SC(=S)N1Cc1ccccc1 do in these assays?
VDR inh: -22%

What do the screens show for `COc1ccc(-n2ccnc(NCc3cccs3)c2=O)cc1OC`?
VDR inh: 5%

How did CCOC(=O)N1CCN(C(=O)C(CC(C)C)NC(=O)C2CCCCC2)CC1 (stereo not drawn) do in these assays?
VDR inh: -2%

Results for CCOC(=O)CNC(=O)c1ccc(SCC)cc1 ?
VDR inh: -11%

Results for O=C(NC(=S)N1CCN(C/C=C/c2ccccc2)CC1)c1ccc(Cl)nc1 ?
VDR inh: -19%

What do the screens show for `O=C(O)/C=C/c1cn(-c2ncc(C(F)(F)F)cc2Cl)c2ccccc12`?
VDR inh: -10%

How did COc1ccc(C(=O)OCc2csc(C)n2)c(O)c1 do in these assays?
VDR inh: -17%

How did N#Cc1ccccc1NC(=O)CSc1nnc(N)s1 do in these assays?
VDR inh: 4%

How did CC(OC(=O)CSc1ccc([N+](=O)[O-])cc1)C(=O)NCc1ccco1 (stereo not drawn) do in these assays?
VDR inh: -1%

How did Cc1cc(N2CCN(c3ccc(C(F)(F)F)cc3[N+](=O)[O-])CC2)c2ccccc2n1 do in these assays?
VDR inh: -7%

Results for CC(=O)c1ccc(N2C(=NC(=O)C3CCCO3)SC3CS(=O)(=O)CC32)cc1 (stereo not drawn) ?
VDR inh: 5%

How did O=C(C[n+]1cc(-c2ccc(F)cc2)n2c1CCC2)OCc1ccccc1 do in these assays?
VDR inh: -12%

How did CCOC(=O)C1CCCN(C(=O)c2cc3c(OC)c(OC)c(OC)cc3[nH]2)C1 (stereo not drawn) do in these assays?
VDR inh: -4%

For reference, 2 of the compounds above.
What do the screens show for `N#Cc1ccccc1-c1ccccc1C(=O)N1CCCCC1`?
VDR inh: -18%

Results for CCOc1ccccc1NC(=O)C(NC(=O)C1CCC(C)CC1)C(C)C (stereo not drawn) ?
VDR inh: 7%

(continued)
Results for COc1ccc(N2CCC(CNC(=S)Nc3cc(C)ccc3C)C2)cc1 (stereo not drawn) ?
VDR inh: -15%

How did O=C1CCN(Cc2ccccc2)CCN1CCO do in these assays?
VDR inh: -6%

Results for CCCn1c(C)cc(C(=O)CSc2nc3nc(C)cc(C)n3n2)c1C ?
VDR inh: -24%

What do the screens show for `Cc1cc(C)c(OCC(=O)OCC(=O)N2CCCc3ccccc32)c(C)c1`?
VDR inh: 11%

How did O=C(NNc1cc(Br)c(O)c(Br)c1)c1ccccc1 do in these assays?
VDR inh: 79µM*

Results for O=C1N/C(=C/c2ccc(N3CCOCC3)o2)C(=O)N1c1ccccc1 ?
VDR inh: 45µM*

Results for Cc1ccccc1NC(=O)C(=O)Nc1ccccc1C ?
VDR inh: -7%

Results for CC(C)CCOC(=O)C1C(c2ccccc2)C(C(=O)O)C1c1ccccc1 (stereo not drawn) ?
VDR inh: -19%

What do the screens show for `Cc1ccc(CN2CCC(n3nccc3NC(=O)CCOc3ccccc3)CC2)cc1C`?
VDR inh: 5%

What do the screens show for `Fc1ccc(/C=N/Nc2nc3ccccc3[nH]2)cc1F`?
VDR inh: -9%

How did COc1ccccc1C/C(N)=N/OC(=O)COc1ccccc1C do in these assays?
VDR inh: -10%

Results for Cc1cc(=O)oc2n[nH]c(-c3ccccc3)c12 ?
VDR inh: 9%

How did COc1ccc2oc(=O)c(C(=O)N3CCN(c4ccccc4F)CC3)cc2c1 do in these assays?
VDR inh: -19%

How did CCc1nnc(NC(=O)c2cc(-c3ccco3)nc3ccccc23)s1 do in these assays?
VDR inh: -9%

What do the screens show for `Cc1ccsc1CN(C(=O)c1ccc(OCC(C)C)cc1)C1CCS(=O)(=O)C1` (stereo not drawn)?
VDR inh: 4%

What do the screens show for `Cc1ccc(NC(=O)c2cc3ccccn3n2)cc1F`?
VDR inh: 6%

What do the screens show for `O=C(C[C@@H]1C/C=C\C[C@@H](Cc2ccc(F)cc2)C(=O)OC[C@@H]2CCCN2C1=O)NCCO`?
VDR inh: -1%

What do the screens show for `Cc1cccc(C)c1OC(=O)CSc1nnc(-c2ccccc2)o1`?
VDR inh: -24%

Results for COc1ccc(CCNC(=O)CN2C(=O)COc3ccc(C)cc32)cc1OC ?
VDR inh: -3%

What do the screens show for `CC1(C)CC2(CCO1)OC(=O)CC2C(=O)Nc1ccc(Br)cc1` (stereo not drawn)?
VDR inh: -3%

How did O=C(O)c1cc2c(ccc3ccccc32)o1 do in these assays?
VDR inh: -6%

How did CC(Sc1ncnc2c1cnn2-c1ccccc1)C(=O)NCC1CCCO1 (stereo not drawn) do in these assays?
VDR inh: -2%

How did O=C(NN=Cc1cc(Br)c(O)c(Br)c1)c1ccccc1NS(=O)(=O)c1cccs1 do in these assays?
VDR inh: -7%

What do the screens show for `CC(C)(C)C(=O)CSc1nc2ccsc2c(=O)n1Cc1ccccc1Cl`?
VDR inh: -1%

How did Cc1ccccc1OCc1cc(=O)n2c(-c3ccccc3)csc2n1 do in these assays?
VDR inh: 1%

What do the screens show for `COc1cccc(/C=N/NC(=O)c2c(C)nc3ccc(Cl)cn23)c1O`?
VDR inh: -7%

What do the screens show for `C/C(=C1/SC(N2CC(C)OC(C)C2)=NC1=O)c1ccccc1` (stereo not drawn)?
VDR inh: -4%

How did O=C(COc1ccc([N+](=O)[O-])cc1)Nc1nc(-c2ccccn2)cs1 do in these assays?
VDR inh: 16%

What do the screens show for `O=C(c1ccccc1)c1cc2cc(Cl)ccc2[nH]1`?
VDR inh: -2%

What do the screens show for `O=C(/C=C/c1ccc(Br)cc1)NC(=O)c1ccccc1O`?
VDR inh: -21%

How did Cn1cc(C(=O)Nc2ccc(F)c(F)c2)cn1 do in these assays?
VDR inh: 14%

What do the screens show for `Cc1nc2ccn(Cc3cccnc3)c(=O)c2cc1C(=O)NCc1ccccc1`?
VDR inh: 10%

Results for CS(=O)(=O)c1ccc(C(=O)NC(Cc2ccccc2)c2ccccc2)cc1 (stereo not drawn) ?
VDR inh: 4%

How did O=C(O)CSc1nccc2ccccc12 do in these assays?
VDR inh: 14%

How did COc1ccccc1-c1cc(Nc2ccc(F)cc2)ncn1 do in these assays?
VDR inh: -3%

What do the screens show for `Cc1ccc(NC(=O)C(Cc2ccccc2)NS(=O)(=O)c2ccc3c(c2)c(=O)n(C)c(=O)n3C)cc1` (stereo not drawn)?
VDR inh: 0%

How did Cc1ccc(CNC(=O)c2ccc3c(c2)NC(=O)C(CS(=O)(=O)Cc2cccc(F)c2)N3)cc1 (stereo not drawn) do in these assays?
VDR inh: 0%

What do the screens show for `CCOc1cc(/C=C/C(=O)OCC(=O)NCc2ccco2)cc(Cl)c1OC`?
VDR inh: -11%

Results for COc1ccc(C(=O)Oc2ccc3oc(=O)sc3c2)cc1 ?
VDR inh: inconclusive

Screening results deposited in PubChem BioAssay by National Center for Advancing Translational Sciences (NCATS).
